High-throughput results as filed in PubChem BioAssay.
PD-1 reversal = activators reversing PD-1 mediated T-cell inhibition, primary screen, luminescence, primary human CD4 T cells, PD-L1 beads; activation, % (test concentration not listed); AID 2316, 2010; 29,000 tested, under 10 active; CellTiter-Glo 96 h;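 active = replicate mean of 50% or more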;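 also: 0% = median vehicle wells and 100% = positive control; 100 nL library stock added to about 50 µL; numbers are from one replicate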
MITF inh = inhibitors of MITF, primary screen, MITF inhibitor project, cell-based, luminescence; TRPM1 promoter luciferase, 24 h; inhibition, % (test concentration not listed); actives 0.28% (n = 37,000);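 active = most replicates at 85% or more, or half of them and the mean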;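 also: human melanocyte line stably carrying TRPM1 promoter luciferase reporter; 0% = vehicle wells and 100% = a positive control; the first replicate is given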
YB-1 expr inh = inhibitors of YB-1 gene expression, primary screen, cell-based, fluorescence; AID 434959, 2010; U2OS, qRT-PCR YB-1 vs CDIP delta delta Cp, 16 h; active compounds read high; zero = DMSO, each unit about twofold; actives 0.37% (n = 30,000); delta delta Cp (YB-1 minus CDIP) (concentration not given with the values);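 active = delta delta Cp rounded down to an integer at or above 3, about 3 SD of DMSO wells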;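 also: higher means less YB-1 transcript or more CDIP transcript relative to DMSO; stock transfer was 100 nL into about 100 µL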
Hedgehog inh = Hedgehog pathway signaling inhibitors, primary screen, luminescence, Shh-LIGHT2 cells, Gli-luciferase; Shh-LIGHT2 Gli-luciferase reporter, 30 h; inhibition, % (no concentration beside the values); actives 2.1% (n = 22,000); AID 2313, 2010;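 active = replicate mean of 65% or more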;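 also: pathway switched on by Shh-conditioned medium diluted 1 in 25 in low serum; 100 nL library stock added to about 40 µL; 0% = median of neutral wells and 100% = positive control level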
* = called active by the depositor; . = not tested or not shown.

SMILES | PD-1 reversal | MITF inh | YB-1 expr inh | Hedgehog inh
C[C@H](CO)N1C[C@H](C)[C@H](CN(C)S(=O)(=O)c2cn(C)cn2)Oc2c(NC(=O)Nc3ccc(F)cc3)cccc2C1=O | 1.0 | -15.2 | 0.327 | 30.7
COc1ccccc1-n1c(SC(C)C(=O)N2CCCCC2)nc2ccc(I)cc2c1=O (stereo not given) | -0.6 | 49.3 | . | .
C[C@@H]1CCCCO[C@@H](CN(C)S(=O)(=O)c2cn(C)cn2)[C@@H](C)CN([C@H](C)CO)C(=O)c2cc(NS(=O)(=O)c3ccccc3)ccc2O1 | . | 2.5 | -0.0725 | .
C[C@@H]1CN([C@H](C)CO)C(=O)Cc2cc(NC(=O)CCC(F)(F)F)ccc2O[C@@H]1CN(C)C(=O)Nc1ccc(F)cc1 | -0.1 | 6.0 | 0.248 | 17.8
COc1ccc(CN(C)C[C@H]2Oc3ccc(NC(=O)Cn4cnnn4)cc3C(=O)N([C@@H](C)CO)C[C@H]2C)cc1 | 0.1 | -5.8 | 0.115 | -25.3
C[C@@H]1CN([C@H](C)CO)C(=O)c2cc(NC(=O)Nc3cccc4ccccc34)ccc2O[C@@H]1CN(C)CC1CCCCC1 | -1.7 | -11.8 | 0.186 | 27.0
Cc1cc(Oc2ccccc2)nc(SCC(=O)Nc2ccccc2)n1 | -2.1 | 22.5 | . | .
C=C1C(=O)O[C@@H]2[C@H]3C(CO)=CC(=O)C3=C(C)C[C@H](OC(=O)Cc3ccc(O)cc3)[C@@H]12 | -7.5 | 2.6 | 0.104 | 3.6
Ic1ccc(N2CCN(Cc3c[nH]c4ncccc34)CC2)cc1 | . | 18.1 | 0.197 | 52.7
C[C@H](CO)N1C[C@H](C)[C@H](CN(C)S(=O)(=O)c2cccs2)Oc2c(NC(=O)c3ccncc3)cccc2C1=O | 2.6 | -10.6 | -0.47 | -16.8
Cc1sc2nc(SCCC(=O)NC3CCCCC3)[nH]c(=O)c2c1C | 1.1 | -0.2 | . | .
C[C@@H]1CCCCO[C@@H](CN(C)C(=O)Nc2ccc(F)cc2)[C@@H](C)CN([C@H](C)CO)C(=O)c2cc(NS(=O)(=O)c3cn(C)cn3)ccc2O1 | -0.2 | 13.1 | -0.0995 | -8.0
C[C@@H]1CN([C@@H](C)CO)C(=O)c2cc(NC(=O)Nc3cccc4ccccc34)ccc2O[C@H]1CN(C)C(=O)Nc1ccccc1 | -0.2 | 5.1 | 0.154 | -3.5
C[C@@H]1CCCCO[C@@H](CN(C)Cc2ccc(C(=O)Nc3ccccc3N)cc2)[C@@H](C)CN([C@H](C)CO)C(=O)c2cc(NS(=O)(=O)c3ccc(F)cc3)ccc2O1 | -0.6 | 34.2 | -0.26 | .
O=C(Nc1ccc(Cl)cc1)N1N=C2c3ccccc3CCC2C1c1cccs1 (stereo not given) | -1.8 | 8.4 | -0.0352 | -14.6
Cc1cc(C)c(S(=O)(=O)N(CC(=O)O)Cc2ccc(Cl)cc2)c(C)c1 | 1.7 | -3.4 | . | .
C[C@@H]1CCCCO[C@@H](CN(C)Cc2ccc(C(=O)Nc3ccccc3N)cc2)[C@@H](C)CN([C@H](C)CO)C(=O)c2cc(NC(=O)Nc3ccccc3)ccc2O1 | 0.8 | -6.9 | -0.24 | .
C[C@H]1CN([C@@H](C)CO)C(=O)c2cccc(NC(=O)NC3CCCCC3)c2O[C@@H]1CN(C)Cc1ccc(C(=O)O)cc1 | -0.2 | -8.6 | 0.227 | -38.1
Cc1noc(C)c1NC(=O)Nc1cccc2c1O[C@H](CN(C)C(=O)NC(C)C)[C@H](C)CN([C@@H](C)CO)C2=O | 3.2 | 5.7 | 0.101 | -22.3
Cc1noc(C)c1NC(=O)Nc1ccc2c(c1)C(=O)N([C@H](C)CO)C[C@H](C)[C@H](CN(C)C(=O)Nc1ccc(F)cc1)O2 | -0.1 | -7.1 | 0.336 | -12.8
C[C@@H]1CCCCO[C@@H](CN(C)CC2CCCCC2)[C@@H](C)CN([C@H](C)CO)C(=O)c2cc(NC(=O)C3CCCCC3)ccc2O1 | -0.7 | -4.8 | 0.343 | .
COc1ccc(NC(=O)Nc2ccc3c(c2)CC(=O)N([C@@H](C)CO)C[C@@H](C)[C@@H](CN(C)C)O3)cc1 | . | -7.0 | 0.0581 | 2.9
CN(C)c1nc(C(C)(C)C)cc2c1C(=O)NC2=O | 0.3 | -10.4 | 0.0721 | -9.3
C[C@@H]1CCCCO[C@H](CN(C)Cc2ccc3c(c2)OCO3)[C@@H](C)CN([C@H](C)CO)C(=O)c2cc(N(C)C)ccc2O1 | . | -2.6 | 0.128 | -26.3
C[C@@H]1CN([C@@H](C)CO)C(=O)c2cc(NC(=O)c3ccncc3)ccc2O[C@@H]1CN(C)S(=O)(=O)c1cccs1 | 0.3 | 0.2 | -0.161 | -29.1
C[C@@H]1CN([C@H](C)CO)C(=O)c2cc(NS(=O)(=O)c3cccs3)ccc2O[C@H]1CN(C)S(=O)(=O)c1cccs1 | -0.3 | -10.4 | 0.442 | -2.6
Cc1noc(C)c1S(=O)(=O)Nc1ccc2c(c1)C(=O)N([C@@H](C)CO)C[C@@H](C)[C@H](CN(C)C(=O)Nc1ccc(F)cc1)O2 | -0.4 | 0.0 | 0.0422 | .
C[C@H]1CN([C@@H](C)CO)C(=O)c2cccc(NC(=O)c3ccc(-c4nccs4)cc3)c2O[C@@H]1CN(C)C(=O)Nc1ccc2c(c1)OCO2 | -0.8 | 4.9 | 1.35 | -26.6
Nc1cc(N)cc(C(=O)OCN2C(=O)c3ccccc3C2=O)c1 | 0.2 | -5.1 | -0.175 | -2.2
C[C@@H]1CCCCO[C@H](CN(C)C(=O)c2ccncc2)[C@@H](C)CN([C@H](C)CO)C(=O)c2cc(NS(C)(=O)=O)ccc2O1 | -0.5 | -10.8 | 0.363 | -53.9
COc1ccc(S(=O)(=O)N(C)C[C@@H]2OCCCC[C@@H](C)Oc3ccc(NC(=O)C4CCCCC4)cc3C(=O)N([C@H](C)CO)C[C@@H]2C)cc1 | -1.0 | 9.7 | 0.185 | 31.0
CNC(=O)CN(C)S(=O)(=O)c1ccc(OC)c(C)c1 | 1.8 | -7.0 | . | .
C[C@@H]1CN([C@@H](C)CO)C(=O)Cc2cc(NC(=O)CCC(F)(F)F)ccc2O[C@@H]1CN(C)S(=O)(=O)c1cn(C)cn1 | 1.5 | -23.4 | 0.249 | -6.9
Cc1cc(C)c(S(=O)(=O)N2CCN(CC(O)COc3ccc4ccccc4c3)CC2)c(C)c1 (stereo not given) | -1.5 | 43.4 | . | .
Cc1c(-c2nnnn2-c2ccccc2)cnc2ccccc12 | 0.7 | 9.4 | 0.424 | -32.1
C[C@@H]1CN([C@@H](C)CO)C(=O)c2cccc(NC(=O)C3CCOCC3)c2O[C@@H]1CN(C)CC1CC1 | -0.3 | 0.3 | -0.453 | 26.7
C[C@H](CO)N1C[C@H](C)[C@H](CN(C)Cc2ccccc2)Oc2ccc(NS(=O)(=O)c3cn(C)cn3)cc2CC1=O | 0.0 | 2.9 | 0.142 | -44.6
C[C@H](CO)N1C[C@H](C)[C@H](CN(C)C)Oc2ccc(NC(=O)Cn3cnnn3)cc2CC1=O | 0.9 | 2.6 | 0.105 | 5.4
Cc1cc(NCn2ncc3ccccc3c2=O)ccc1Br | 1.0 | -5.5 | -0.305 | -8.2
C=C1C(=O)O[C@@H]2CC=C(CCC(C)O)C(C)C[C@@H]12 (stereo not given in full) | -7.7 | 10.4 | 0.322 | 5.8
Brc1ccc(CNc2nc3ccccc3n2CCN2CCOCC2)cc1 | -0.6 | -1.8 | . | .
CSc1ccccc1NC(=O)C(C)NS(=O)(=O)c1ccc(Cl)cc1 (stereo not given) | 0.0 | 0.7 | . | .
Cc1ccc(NC(=O)CSc2nc(-c3cccs3)cc(C(F)(F)F)n2)c([N+](=O)[O-])c1 | -0.3 | 21.1 | . | .
Nc1cc(N)nc(SCC(=O)c2ccc(F)cc2)n1 | -0.3 | -37.8 | . | .
Cc1ccccc1C(=O)Nc1ccc2nc(SCC(=O)Nc3ccccc3)sc2c1 | 0.3 | 15.2 | . | .
C[C@@H]1CN([C@@H](C)CO)C(=O)c2cccc(NC(=O)c3cnccn3)c2O[C@@H]1CN(C)S(=O)(=O)c1cccs1 | 2.3 | -6.5 | -0.344 | -1.9
Cc1ccc(S(=O)(=O)Nc2ccc3c(c2)C(=O)N([C@@H](C)CO)C[C@H](C)[C@H](CN(C)Cc2ccc(Cl)c(Cl)c2)O3)cc1 | -0.7 | -0.7 | -0.149 | .
c1ccc(-c2ccc(-c3cn4ccccc4n3)cc2)cc1 | -0.8 | 59.4 | 0.464 | -130.7
CNC[C@@H]1Oc2ccc(NC(=O)Nc3ccc4c(c3)OCO4)cc2C(=O)N([C@@H](C)CO)C[C@H]1C | . | -2.0 | -0.509 | .
CCOC(=O)c1cnc(C(F)(F)F)nc1Sc1n[nH]c(-c2cccs2)n1 | 3.2 | 9.9 | 0.416 | -24.0
C[C@@H]1CN([C@@H](C)CO)C(=O)c2cccc(NS(=O)(=O)c3cn(C)cn3)c2O[C@@H]1CN(C)C(=O)Nc1cccc2ccccc12 | 0.7 | 1.5 | 0.416 | -30.5
CC(C)NC(=O)Nc1ccc2c(c1)C(=O)N([C@H](C)CO)C[C@H](C)[C@H](CN(C)S(=O)(=O)c1ccccc1)OCCCC[C@@H](C)O2 | -0.2 | -2.0 | -0.338 | .
Cc1cc(C)nc(Nc2n[nH]c(COc3cccc4cccnc34)n2)n1 | 1.2 | -32.2 | . | .
C[C@H]1CN([C@@H](C)CO)C(=O)c2cc(NC(=O)NC3CCCCC3)ccc2O[C@H]1CN(C)S(=O)(=O)c1cccs1 | -0.2 | -8.6 | -0.373 | .
C[C@@H]1CCCCO[C@H](CN(C)S(=O)(=O)c2ccc(Cl)cc2)[C@@H](C)CN([C@H](C)CO)C(=O)c2cc(NC(=O)c3ccncc3)ccc2O1 | -2.4 | 0.4 | 0.248 | 40.8
C[C@@H]1CN([C@@H](C)CO)C(=O)c2cccc(NC(=O)Nc3ccccc3)c2O[C@@H]1CN(C)C(=O)NC1CCCCC1 | -2.6 | 4.1 | 0.000919 | -21.4
Cc1cccc(N(CC(=O)Nc2ccc(Cl)cc2)S(C)(=O)=O)c1C | -1.9 | -9.7 | . | .
Cc1ccc(S(=O)(=O)Nc2ccc3c(c2)C(=O)N([C@H](C)CO)C[C@H](C)[C@H](CN(C)CC2CC2)OCCCC[C@@H](C)O3)cc1 | 2.7 | -15.3 | -0.189 | -18.3
Cc1ccc(S(=O)(=O)Nc2ccc3c(c2)CC(=O)N([C@@H](C)CO)C[C@H](C)[C@@H](CN(C)Cc2ccncc2)O3)cc1 | . | -2.6 | -0.142 | 10.3
CC(C)c1ccc(NCC(O)COc2ccc(Cl)c(Cl)c2)cc1 (stereo not given) | -3.4 | 1.1 | -0.479 | -45.9

One compound at a time (already shown):
Cc1cccc(N(CC(=O)Nc2ccc(Cl)cc2)S(C)(=O)=O)c1C across the screens: PD-1 reversal = -1.9; MITF inh = -9.7; YB-1 expr inh = .; Hedgehog inh = .
Cc1cc(C)nc(Nc2n[nH]c(COc3cccc4cccnc34)n2)n1 across the screens: PD-1 reversal = 1.2; MITF inh = -32.2; YB-1 expr inh = .; Hedgehog inh = .
C[C@@H]1CCCCO[C@H](CN(C)S(=O)(=O)c2ccc(Cl)cc2)[C@@H](C)CN([C@H](C)CO)C(=O)c2cc(NC(=O)c3ccncc3)ccc2O1 across the screens: PD-1 reversal = -2.4; MITF inh = 0.4; YB-1 expr inh = 0.248; Hedgehog inh = 40.8

More results follow:
SMILES | PD-1 reversal | MITF inh | YB-1 expr inh | Hedgehog inh
CCC(Sc1nnc(-c2ccc(NC(C)=O)cc2)n1C)C(=O)Nc1ccc(Cl)cc1 (stereo not given) | -1.8 | 11.8 | . | .
C[C@@H]1CN([C@H](C)CO)C(=O)c2cccc(NC(=O)c3ccc(-c4nccs4)cc3)c2O[C@H]1CN(C)Cc1ccccc1 | -6.6 | 48.3 | -0.221 | 19.2
CC(C)NC(=O)Nc1ccc2c(c1)CC(=O)N([C@H](C)CO)C[C@H](C)[C@H](CN(C)Cc1ccncc1)O2 | 1.0 | 0.6 | -0.403 | -9.6
CCOC(=O)c1c(NC(=S)N2CCOCC2)sc(C)c1C | 0.2 | -30.7 | -0.261 | 21.0
Cc1ccc(S(=O)(=O)Nc2cccc3c2O[C@H](CN(C)C(=O)NC(C)C)[C@@H](C)CN([C@H](C)CO)C3=O)cc1 | 1.7 | -8.1 | -0.361 | -29.0
C[C@H]1CN([C@@H](C)CO)C(=O)c2cccc(NC(=O)c3cnccn3)c2O[C@@H]1CN(C)Cc1ccc(C(F)(F)F)cc1 | -1.3 | -8.8 | 0.987 | 13.5
OCCN(CCO)Cc1ccc(Cl)cc1 | 0.7 | -9.2 | . | .
COc1ccc(C[C@H](N)C(=O)N[C@H]2[C@@H](O)[C@H](n3cnc4c(N(C)C)ncnc43)O[C@@H]2CO)cc1 | . | 102.2* | -0.228 | 85.3*

Only part of the results is shown; the hit share may differ from the screen's.
